HIV Env fusion – inhibitors of HIV Env-mediated cell fusion; inhibition, % at 12.3 µM; hit rate 1.1% among 360,000; HeLa-JRFL Env/CEM21 cell fusion, luciferase;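 active = mean replicate inhibition score of at least 50 and every replicate individually at or above 50; inconclusive = only one of the two criteria met; inactive = mean below 50 and not all replicates reaching 50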;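 note: 0% = plate neutral controls and 100% = maraviroc near 300 nM; one replicate is shown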
PABP FP inh – blocks human PABP binding to poly(A) RNA; P11940; fluorescence polarization; inhibition, % at 35 µM; hit rate 1% among 290,000; AID 2014;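 active = 50% or more with normal probe brightness, or confirmed in later tests; inconclusive = above 50% with abnormal brightness, or retests that disagree; inactive = below 50% or failed in later tests; about a fifth of its hits are not listed in these tables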;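 note: calls also rest on retests at 20 µM and on dose response follow-up; controls were probe without protein and protein plus probe with vehicle; some compounds called inactive have numbers as strong as hits; many hits fall short of the cut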
Target sequence (P11940 whole entry, looked up): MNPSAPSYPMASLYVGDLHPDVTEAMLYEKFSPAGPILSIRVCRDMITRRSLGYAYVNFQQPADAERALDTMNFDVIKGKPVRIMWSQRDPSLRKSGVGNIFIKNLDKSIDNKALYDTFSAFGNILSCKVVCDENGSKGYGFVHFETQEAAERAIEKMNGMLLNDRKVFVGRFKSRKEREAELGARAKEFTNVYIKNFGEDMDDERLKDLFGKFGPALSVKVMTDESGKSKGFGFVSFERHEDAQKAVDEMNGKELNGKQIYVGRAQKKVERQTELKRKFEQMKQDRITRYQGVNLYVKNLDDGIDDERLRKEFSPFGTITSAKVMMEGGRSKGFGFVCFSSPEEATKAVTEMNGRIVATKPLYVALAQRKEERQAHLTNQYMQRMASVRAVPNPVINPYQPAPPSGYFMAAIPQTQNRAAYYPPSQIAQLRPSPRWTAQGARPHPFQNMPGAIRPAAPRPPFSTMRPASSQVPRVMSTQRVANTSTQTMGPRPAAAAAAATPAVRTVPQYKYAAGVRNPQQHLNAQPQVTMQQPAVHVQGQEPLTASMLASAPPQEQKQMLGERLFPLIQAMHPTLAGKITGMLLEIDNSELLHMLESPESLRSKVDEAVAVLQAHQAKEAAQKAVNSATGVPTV
Rce1 inhib – yeast Ras-converting enzyme inhibition | Q03530 | yeast membranes, quenched prenylated peptide cleavage fluorescence | calls only | hit rate 0.27% among 290,000;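 active = fall in fluorescence gain of 50% or more versus controls, with final raw signal at or below 3038400; inconclusive = same 50% fall but final raw signal above 3038400; inactive = fall in fluorescence gain under 50%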;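 note: plate controls were neutral control wells for no effect and wells lacking membranes for full effect; tested at 10 µM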
Target sequence (Q03530 whole entry, looked up): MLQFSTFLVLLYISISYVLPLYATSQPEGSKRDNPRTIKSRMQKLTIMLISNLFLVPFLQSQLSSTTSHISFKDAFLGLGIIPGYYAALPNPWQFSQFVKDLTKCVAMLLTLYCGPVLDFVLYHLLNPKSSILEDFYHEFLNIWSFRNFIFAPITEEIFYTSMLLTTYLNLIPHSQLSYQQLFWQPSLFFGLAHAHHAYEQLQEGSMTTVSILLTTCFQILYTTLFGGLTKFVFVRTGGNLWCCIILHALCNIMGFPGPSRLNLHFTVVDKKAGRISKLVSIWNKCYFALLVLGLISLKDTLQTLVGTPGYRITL
CSC inhib – cancer stem cell inhibition; cancer stem cell-like cells viability, luminescence; hit rate 1.1% among 300,000; inhibition, % at 7.5 µM;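 active = mean at 75% or more and at least half the replicates too; inconclusive = mean and replicates disagree; tested in HMLE shEcad cells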;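 note: 0% = median of negative and 100% = median of positive control wells; the first replicate is given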
Yeast UUG start – yeast start codon fidelity modulation; S. cerevisiae UUG-firefly luciferase reporter, luminescence/redox ratio; activity score, % at 18.7 µM; hit rate 0.13% among 350,000; AID 602363;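 active = replicate mean at a twofold rise or more, about +100% in these data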;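 note: firefly luciferase made from a UUG start codon reports start codon fidelity; reporter light over untreated wells divided by growth signal over untreated wells; some hits fall short of that in this replicate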
MT1-MMP act inh – MT1-MMP (human) activation inhibition; HT1080 RFP-PRO-GFP cells, GFP/RFP ratio fluorescence, overnight; percent of plate control window, DMSO zero; P50281; hit rate 0.061% among 360,000; AID 651647; GFP/RFP ratio change, % at 20 µM;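 active = GFP/RFP ratio change of at least 30% with cell ATP level not reduced by more than half and red fluorescence within 50% of control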; note: strong numbers were not always called active
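Material – HT1080 RFP-PRO-GFP cells · Control set – DMSO wells and RFP-L50D-GFP cells · Incubation – overnight cell settling, then overnight compound exposure, 37 °C, 5% CO2 · Compound dosing – single-point 20 µM compound, 1% DMSO · Read-out – GFP/RFP fluorescence ratio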
eIF4H inh – inhibitors of RNA binding by human eIF4H; eIF4H fluorescence polarization binding assay; hit rate 0.94% among 290,000; inhibition, % at 35 µM; AID 2012;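 active = 50% or more with normal probe brightness, or confirmed in later tests; inconclusive = above 50% with abnormal brightness, or retests that disagree; inactive = below 50% or failed in later tests; about a fifth of its hits are not listed in these tables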;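 note: calls also rest on retests at 20 µM and on dose response follow-up; 0% = protein and probe with vehicle and 100% = probe without protein; strong numbers were not always called active; many hits fall short of the cut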
MT1-MMP act inh RFP – further read-out of MT1-MMP act inh, marked with its call; RFP signal change, %; measured here: RFP expression control read;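 0 = vehicle wells; hits needed this value within 50% of zero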
Numbers without * were called inactive; i = inactive; ? = inconclusive; . = not tested or not shown.

Values run as follows: HIV Env fusion	PABP FP inh	Rce1 inhib	CSC inhib	Yeast UUG start	MT1-MMP act inh	MT1-MMP act inh RFP	eIF4H inh
Cc1ccc(OCC(=O)OCC(=O)NC2CCS(=O)(=O)C2)cc1C (stereo unspecified)
    6	.	.	.	-27	-1	2	.
Cc1ccc(Cn2ccnc2SCC(=O)NC2CCCC2)cc1
    14	-6	i	-3	-3	-4	-3	-15
C=CCN(Cc1ccc(OC)c(OC)c1)C(=O)c1cc2cc(F)ccc2[nH]1
    76*	-1	i	13	-24	-4	-2	8
Cc1cccc(N2CCN(C(=O)/C=C/c3cccs3)CC2C)c1 (stereo unspecified)
    13	13	i	21	.	-5	-5	0
CN1C(C(=O)NCc2ccc(OC(F)(F)F)cc2)CC2Cn3c(nc4cc(Cl)c(Cl)cc43)C21 (stereo unspecified)
    3	-8	i	13	-18	15	-11	10
O=C(/C=C/c1cccs1)Nc1ccc(N2CCOCC2)c(S(=O)(=O)Nc2ccccc2Cl)c1
    31	-6	i	17	-23	7	-12	-4
CC(=O)SC(C[N+](=O)[O-])c1cn(C(C)=O)c2ccccc12 (stereo unspecified)
    .	10	i	-2	.	-3	6	5
Clc1ncccc1-c1nnn(-c2ccccc2)n1
    .	-4	i	-11	-35	3	4	5
CCC(=O)Nc1ccc2c(c1)nc1n2CCN(CCOC)C1
    8	-4	i	-11	-32	-2	0	6
COc1ccc(-c2noc(CCCC(=O)O)n2)cc1
    84*	3	i	-6	-43	1	0	-3
COc1ccc(NC(=O)C2CCCCN2CC(=O)OCc2ccccc2)cc1OC (stereo unspecified)
    .	1	i	22	3	-4	2	-3
CC(=O)Nc1sc2c(c1CN1CCN(C)CC1)CCCC2
    -46	-1	i	-3	-18	-3	1	-5
c1ccc2c(c1)CCc1ccccc1C2=C1CCNCC1
    4	.	i	18	.	-9	-9	.
COc1ccc2c(CC(=O)NCC3CCC(C(=O)O)CC3)cc(=O)oc2c1 (stereo unspecified)
    .	-7	?	-13	1	-1	1	-5
COC(=O)c1cc(Cl)c(NC(=O)/C=C/c2ccc(Cl)cc2)cc1OC
    -106	-6	i	8	-2	0	-2	0
COc1ccccc1C(C)NC(=O)CN(C)CC(=O)Nc1c(C)cccc1C (stereo unspecified)
    4	.	.	.	-6	4	0	.
N=C1/C(=C/c2cccn2-c2ccc([N+](=O)[O-])cc2)C(=O)N=C2SC=CN12
    .	-18	i	-9	.	-1	1	15
Cc1ccc(-c2nnc(Nc3cccc(O)c3)c3ccccc23)cc1S(=O)(=O)NCCO
    3	13	i	-3	-12	1	2	-12
O=c1[nH]c(NCCO)nc2c1C1(CCCCC1)Cc1ccccc1-2
    .	-2	.	5	-11	2	0	-5
Cc1nc(-c2cccs2)sc1C(=O)NN
    16	-16	i	18	.	0	6	4

Ordered by length of the SMILES (ascending): three of the compounds above.
Values run as follows: HIV Env fusion	PABP FP inh	Rce1 inhib	CSC inhib	Yeast UUG start	MT1-MMP act inh	MT1-MMP act inh RFP	eIF4H inh
Cc1ccc(Cn2ccnc2SCC(=O)NC2CCCC2)cc1
    14	-6	i	-3	-3	-4	-3	-15
COc1ccc2c(CC(=O)NCC3CCC(C(=O)O)CC3)cc(=O)oc2c1 (stereo unspecified)
    .	-7	?	-13	1	-1	1	-5
CN1C(C(=O)NCc2ccc(OC(F)(F)F)cc2)CC2Cn3c(nc4cc(Cl)c(Cl)cc43)C21 (stereo unspecified)
    3	-8	i	13	-18	15	-11	10

Later entries.
Values run as follows: HIV Env fusion	PABP FP inh	Rce1 inhib	CSC inhib	Yeast UUG start	MT1-MMP act inh	MT1-MMP act inh RFP	eIF4H inh
COc1cc(C2C3=C(CC(C)(C)CC3=O)OC(N)=C2[N+](=O)[O-])ccc1O (stereo unspecified)
    0	12	i	2	-5	1	-1	-9
COc1ccc(-c2nc3c(n2O)CCc2c-3no[n+]2[O-])cc1
    -18	-7	i	-5	-15	2	-1	-6
COc1ccccc1OCCNc1ccc(S(=O)(=O)N2CCCC2)cn1
    0	.	.	.	12	3	1	.
Cc1cccc(N2CCN(C(=O)C(NS(=O)(=O)c3cccs3)c3ccccc3)CC2)c1C (stereo unspecified)
    .	11	i	6	-35	-12	-17	-5
COC(=O)N1[C@H](C)C=C[C@]1(Cc1ccccc1)C(=O)NCCCNc1ncc(C(F)(F)F)cc1Cl
    103*	.	i	19	-4	3	0	.
COc1cc(Br)cc2cc(C(=O)N3CCCCC3C)c(=O)oc12 (stereo unspecified)
    -68	7	i	-2	-5	1	1	4
COc1ccccc1N1CCN(C(=O)c2cccc(C(=O)N3CCN(c4ccccc4OC)CC3)c2)CC1
    14	5	.	-4	14	8	-9	-15
Nc1cccc(-c2nc3ccccc3[nH]2)c1
    -150	-15	?	1	-14	5	3	1
CC1=C(Sc2nc3ccccc3[nH]2)C(=O)NC(C)(C)C1
    -7	-6	i	-10	.	1	8	-2
O=C(Cc1cccs1)Nc1ccccc1-c1nc2ccccc2[nH]1
    .	8	i	51	.	.	.	-13
Cc1ccc(NC(=O)CCC(=O)OCC(=O)c2ccc(-c3ccccc3)cc2)cc1
    -17	3	i	-11	-8	10	7	-7
COCCNC(=O)C(c1ccc(OC)cc1)N(CCOC)C(=O)CCC(=O)Nc1nccs1 (stereo unspecified)
    -2	-1	i	-18	-3	6	1	-8
CCC(OC(=O)c1ccc(S(C)(=O)=O)c([N+](=O)[O-])c1)C(=O)NC1C2CC3CC(C2)CC1C3 (stereo unspecified)
    -108	.	.	.	-1	5	-14	.
O=C(NNC(=O)c1ccc2c(=O)n3c(nc2c1)CCC3)c1cccc(Cl)c1
    -51	.	i	-6	-3	2	-3	.
COc1ccc(-c2csc(Nc3cc(C)ccn3)n2)cc1C
    -26	7	i	6	-24	-8	-19	-5
Cc1c(C(=O)NCc2ccccn2)sc(=O)n1Cc1ccc(-c2ccccc2)cc1
    11	.	.	.	-21	3	-3	.
CCCN1CCN(CCCNC(=O)CCCn2nc(C)c3sc4ccccc4c3c2=O)CC1
    -4	5	i	-1	-14	0	-2	0
COC(=O)c1ccc(Cn2cnc3c(cnn3-c3ccc(C)c(C)c3)c2=O)o1
    .	-5	i	-4	-16	3	0	0
CCOCCCNC(=O)c1ccc(N2CCOCC2)c(NS(=O)(=O)c2ccc(OC)cc2)c1
    12	-1	i	-11	.	0	7	1
NC(=O)c1c(NC(=O)c2ccc([N+](=O)[O-])o2)sc2c1CCCC2
    0	9	i	7	-19	0	-10	-10

(cont.)
Values run as follows: HIV Env fusion	PABP FP inh	Rce1 inhib	CSC inhib	Yeast UUG start	MT1-MMP act inh	MT1-MMP act inh RFP	eIF4H inh
Cc1ccc(Cl)cc1N1C(=O)CC(Sc2ncccn2)C1=O (stereo unspecified)
    -11	-6	i	-6	-2	1	6	-4
C#CCOCCOCCOCCNc1nc(N2CCN(C(=O)[C@H](CCCN=C(N)N)n3cc(C(N)[C@@H](C)CC)nn3)CC2)nc(N2CCN(C(=O)[C@H](CCC(=O)O)n3cc([C@@H](N)CC(N)=O)nn3)CC2)n1 (stereo partly specified)
    9	.	.	17	10	4	5	.
O=C(CSc1nc2ncccc2[nH]1)NC1CCCCC1
    6	9	i	-9	-7	-1	-10	6
COC(=O)c1sc(S(=O)(=O)NC(C)C(=O)O)c(C(=O)OC)c1C (stereo unspecified)
    -7	-1	i	8	.	0	2	7
COC(=O)c1ccc(-c2n[nH]c(=O)c3ccccc23)cc1
    -62	4	i	-6	1	-7	6	-4
O=C(Nc1nnc(Cc2ccc(Cl)cc2)s1)c1cccs1
    -60	-11	i	4	-14	0	3	0
Cc1cccc(C)c1OCC(=O)OCC(=O)Nc1ccc(Cl)cn1
    -9	.	.	.	-18	0	1	.
Cc1cc(SCC(=O)N(C)CC(=O)Nc2ccc(F)cc2)nc2ccccc12
    24	1	i	-12	.	-8	0	1
O=C(CN(c1ccc2c(c1)OCCO2)S(=O)(=O)c1ccccc1)NCC1CCCO1 (stereo unspecified)
    -16	6	i	-9	-2	2	2	14
CCN(CC)S(=O)(=O)c1ccc(N2CCOCC2)c(NS(=O)(=O)c2ccc(Cl)s2)c1
    -5	.	.	.	10	6	5	.
CN(CC1CCCN(CCc2ccccc2F)C1)C(=O)c1ccoc1 (stereo unspecified)
    -13	-9	i	9	-8	-4	0	-4
CCN(C(=O)/C=C/c1ccccc1)C1CCCCC1
    -14	-1	i	5	-10	-1	0	-6
CCOC(=O)Cc1csc(NC(=O)COc2ccc(C)c(C)c2)n1
    3	9	i	-6	.	-1	2	-2
Cc1ccc2c(CSc3nncn3C)cc(=O)oc2c1C
    9	13	i	.	-21	0	2	-5
O=C(Cn1nc(-c2cccc(Cl)c2)ccc1=O)Nc1cccnc1
    -4	0	i	.	-14	0	1	-2
CCOC(=O)N1c2ccccc2Sc2ccccc21
    -7	-12	i	-1	.	-1	1	-1
CCOc1ccc(NS(=O)(=O)c2ccc(NC(=O)c3cccnc3)c(OC)c2)cc1
    8	-5	i	-2	-5	0	-4	-12
CCCNC(=O)C(=O)N/N=C/c1ccc(OCc2ccccc2)cc1
    -13	-10	i	-5	.	3	4	2
COc1ccccc1NC(=S)NCCc1c[nH]c2ccccc12
    .	3	i	8	-8	3	-6	7
O=C(Nc1ccc(Cc2ccncc2)cc1)c1cccc([N+](=O)[O-])c1
    -11	-2	i	45	-10	1	-9	6

Additional records
Values run as follows: HIV Env fusion	PABP FP inh	Rce1 inhib	CSC inhib	Yeast UUG start	MT1-MMP act inh	MT1-MMP act inh RFP	eIF4H inh
CCCn1c2ccccc2c2nnc(SCC(=O)Nc3nnc(CC(=O)OCC)s3)nc21
    -54	6	i	5	-12	1	4	-5
Cc1cccc(COc2ccccc2C(=O)N(C)CC(=O)Nc2cccc(F)c2)c1
    .	.	.	-4	15	1	-6	.
Cc1ccc(S(=O)(=O)CC(=O)c2ccc(C(C)(C)C)cc2)cc1
    .	3	i	0	15	1	-3	2
CCOC(=O)c1c(C)[nH]c(C(=O)COC(=O)c2cnccn2)c1C
    33	.	.	-3	-1	-5	1	.
O=C(NC1CCCCC1)C(c1ccncc1)N(C(=O)c1csnn1)c1ccccc1F (stereo unspecified)
    -5	9	i	-9	-9	-1	2	-7
COc1ccc(F)cc1Cn1nc(C(=O)O)c2ccccc2c1=O
    -1	-2	i	-11	-23	-6	1	-16
CCOC(=O)C1=C(CN2CCC(C)CC2)NC(=O)NC1c1ccc(Cl)cc1 (stereo unspecified)
    .	-8	i	-12	-1	1	-9	-1
Cc1ccc(NC(=O)COc2ccccc2)c(NC(=O)c2ccco2)c1
    -25	5	i	-5	-9	-3	1	7

6 entries picked at random from those above:
Values run as follows: HIV Env fusion	PABP FP inh	Rce1 inhib	CSC inhib	Yeast UUG start	MT1-MMP act inh	MT1-MMP act inh RFP	eIF4H inh
CCOC(=O)c1c(C)[nH]c(C(=O)COC(=O)c2cnccn2)c1C
    33	.	.	-3	-1	-5	1	.
COc1ccc(F)cc1Cn1nc(C(=O)O)c2ccccc2c1=O
    -1	-2	i	-11	-23	-6	1	-16
CCCn1c2ccccc2c2nnc(SCC(=O)Nc3nnc(CC(=O)OCC)s3)nc21
    -54	6	i	5	-12	1	4	-5
Cc1cccc(COc2ccccc2C(=O)N(C)CC(=O)Nc2cccc(F)c2)c1
    .	.	.	-4	15	1	-6	.
Cc1ccc(S(=O)(=O)CC(=O)c2ccc(C(C)(C)C)cc2)cc1
    .	3	i	0	15	1	-3	2
O=C(NC1CCCCC1)C(c1ccncc1)N(C(=O)c1csnn1)c1ccccc1F (stereo unspecified)
    -5	9	i	-9	-9	-1	2	-7

Assay outcomes (PubChem BioAssay)

These rows are one share of the data. The share of hits here may be higher or lower than overall.
